Bioassay records (PubChem)
Prx2 Sm inh = blocks S. mansoni peroxiredoxin 2 enzymatic activity | S. mansoni Prx2 activity coupled to TGR/GSH (TGR is thioredoxin glutathione reductase), NADPH fluorescence loss, qHTS; some inactives read as strong as hits | Potency, µM | 65,000 compounds, 0.07% hits | AID 448; active means full or partial inhibition curve with a strong effect at the top dose; inconclusive means weaker partial or single-point curve; inactive means no accepted curve; also: series up to 57 µM; many of its hits are not listed in these tables
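Purified S. mansoni TGR and Prx2 in pH 7.4 phosphate buffer with EDTA and Tween-20 were preincubated with compounds for 15 min. Further NADPH/GSH was added, then a 2.5 mM H2O2 aliquot initiated turnover, followed kinetically by NADPH fluorescence.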
Anthrax LT inh = anthrax lethal toxin internalization inhibition. Cells, anthrax lethal toxin internalization, FRET ratio (460/530). Potency, µM (series often up to 40 µM), without a hit: at the highest dose activity change, negative = inhibition, hits mostly inhibitors. 70,000 compounds, 0.67% hits; active = well fitted falling ratio curve with the 530 nm signal flat; inconclusive = other ratio curves, or a change in one channel alone; inactive = flat curves in the ratio and both channels; the % refers to the ratio; also: % is scaled to controls: 0 for no effect and ±100 for the full control effect; nearly all actives have a fitted effect of over 50% in size; tested in ME-180 cells; beta-lactamase reporter
Active calls of the source: *; ? = inconclusive; . = no result given; [ ] = dose if it differs, or a comment. Potency is read from the fitted curve at half-maximal effect. An excerpt; rates above refer to the full screens.

Preview, four compounds:
Molecule | Anthrax LT inh | Prx2 Sm inh
O=c1[nH]c(=O)n(Cc2ccccc2)c2nc(-c3ccco3)cc(C(F)(F)F)c12 | -6% | >57
CCOC(=O)C(NC(=O)CC)(Nc1ccccc1OC)C(F)(F)F (stereo not given) | -10% | >57
CCc1nnc(NC(=O)CCC(=O)N2CCN(CCc3ccccc3)CC2)s1 | -11% | >57
N#CCCNC(=O)CCN1CCOCC1 | -7% | >57

This part in full, previewed entries included:
Molecule | Anthrax LT inh | Prx2 Sm inh
O=c1[nH]c(=O)n(Cc2ccccc2)c2nc(-c3ccco3)cc(C(F)(F)F)c12 | -6% | >57
CCOC(=O)C(NC(=O)CC)(Nc1ccccc1OC)C(F)(F)F (stereo not given) | -10% | >57
CCc1nnc(NC(=O)CCC(=O)N2CCN(CCc3ccccc3)CC2)s1 | -11% | >57
N#CCCNC(=O)CCN1CCOCC1 | -7% | >57
Cc1ccc(NC2=CC(=O)CC(c3ccco3)C2)c(N)c1 (stereo not given) | -14% | .
COc1ccc(-n2c(=O)c(-c3cc(F)cc(F)c3)nc3cnc(N4CCOCC4)nc32)cc1 | ? | >11
COC(=O)c1ccc(CSc2nnc(N)s2)cc1 | -6% | >57
COCc1[nH]nc2c1C(c1ccc(F)cc1F)C(C#N)=C(N)O2 (stereo not given) | -4% | >57
CCOC(=O)CSc1nnc(-c2cccc(Cl)c2)n1CC | 3% | >57
CCN(C1CCCCC1)S(=O)(=O)c1ccc(C(=O)O)cc1 | -5% | >57
COC(=O)c1ccc(CN2CCN(Cc3ccc(C(=O)OC)o3)CC2)o1 | -2% | >57
O=C(CN1CCOCC1)Nc1ccc(Oc2ccccc2)cc1 | 11% | >57

Random excerpt: six entries already listed, in no set order.
Molecule | Anthrax LT inh | Prx2 Sm inh
O=C(CN1CCOCC1)Nc1ccc(Oc2ccccc2)cc1 | 11% | >57
CCN(C1CCCCC1)S(=O)(=O)c1ccc(C(=O)O)cc1 | -5% | >57
O=c1[nH]c(=O)n(Cc2ccccc2)c2nc(-c3ccco3)cc(C(F)(F)F)c12 | -6% | >57
COC(=O)c1ccc(CN2CCN(Cc3ccc(C(=O)OC)o3)CC2)o1 | -2% | >57
Cc1ccc(NC2=CC(=O)CC(c3ccco3)C2)c(N)c1 (stereo not given) | -14% | .
COc1ccc(-n2c(=O)c(-c3cc(F)cc(F)c3)nc3cnc(N4CCOCC4)nc32)cc1 | ? | >11

Other entries:
Molecule | Anthrax LT inh | Prx2 Sm inh
Cc1cc(C(F)F)n2nc(C(=O)Nc3ccccc3F)nc2n1 | -16% | >57
Cc1ccc2[nH]cc(C(=O)CN3CCC4(CC3)OCCO4)c2c1 | . | >57
COc1ccc(C(=O)c2ccc(OC)c(N)c2)cc1N | ? | .
Cc1cc(NC(=O)c2cccc(N3C(=O)CCC3=O)c2)no1 | 3% | >57
CN(C)c1nc(N)nc(/C(C#N)=C/C2CC3C=CC2C3)n1 (stereo not given) | 3% | >57
CCOC(=O)N1CCN(c2cc(C)nc3nc(C)nn23)CC1 | 2% | >57
Cc1ccc(Nc2nc3nonc3[nH]c2=O)cc1C | -14% | >57
CCc1nc(C)c(C#N)c2cc(OC)c(OC)cc12 | 21% | >57
CCOc1ccc(-c2nnn(CC(=O)c3cc(OC)ccc3OC)n2)cc1 | 26% | >57
CCOC(=O)c1cccc(NC(=O)CSc2nnc(C)n2Cc2ccccc2)c1 | 5% | .
COc1cc(-c2cc3nc(C)c(C)c(=O)n3[nH]2)cc(OC)c1OC | -4% | >57
COC(=O)[C@@H](NC(=O)c1cc(-c2ccccc2)nc2ccccc12)c1ccccc1 | . | >57

Additional results.
Molecule | Anthrax LT inh | Prx2 Sm inh
COc1nc(-c2ccccc2)ccc1-c1noc(-c2ccco2)n1 | -22% | >57
Cc1[nH]c2c(C)ccc(C)c2c1CC(=O)O | -8%[8 µM] | >57
COc1ccc(C(=O)NC2CCN(S(=O)(=O)Cc3ccccc3)CC2)c(OC)c1 | -12% | >57
O=C(NC12CC3CC(CC(C3)C1)C2)c1ccccc1O | . | >57
CC(C)C(NC(=O)C12CC3CC(CC(C3)C1)C2)C(=O)O (stereo not given) | 1% | >57
O=C(c1cc2ccccn2n1)N1CCN(Cc2ccccc2)CC1 | 3% | >57
CC(C)C1N=C2c3ccccc3N=C(SCC(=O)NCCc3ccc(S(N)(=O)=O)cc3)N2C1=O (stereo not given) | -2% | >57
CC(=O)Nc1nnc(SCC(=O)NC(C)(C)C)s1 | -3% | >57
COc1ccc(-c2nc3cnc(N4CCOCC4)nc3n(CCc3ccccc3)c2=O)cc1 | ? | >57
CCOC(=O)N1CCN(C(=O)C2CCN(S(C)(=O)=O)CC2)CC1 | 5% | >57
O=C(Cc1cccs1)N1CCC(c2nc3c(nnn3Cc3ccccc3)c(=O)[nH]2)CC1 | -19% | >57
O=C(Nc1nc2ccccc2n1CCN1CCCC1)c1ccc(Cl)cc1 | -12% | .

More results.
Molecule | Anthrax LT inh | Prx2 Sm inh
COc1ccc2[nH]c(=O)c(CN(CCc3ccccc3)Cc3nnnn3CC3CCCO3)cc2c1 (stereo not given) | -2% | >57
Cc1ccc(CNC(=O)CN2CCN(Cc3ccc(C)cc3)C2=O)cc1 | 3% | >57
COc1ccc(C2CC(=O)C3=C(C2)Nc2ccccc2N(C(C)=O)C3c2ccco2)cc1 (stereo not given) | . | >57
C=CC[C@@H]1C=C[C@H](ON=C(C)C)[C@H](CO)O1 | 5%[8 µM] | .
CC(C)COC(=O)Cn1cnc2ccc(Br)cc2c1=O | ? | >57
CC(C)[C@@H](OCc1ccccc1)[C@H](C)/C=N\OC[C@@H](O)[C@@H]1O[C@@H]2OC(C)(C)O[C@@H]2[C@H]1O | -4%[8 µM] | .
CCCC(=O)Nc1ccc2c(c1)C(=O)N(CCC(=O)O)C2=O | -1% | >57
Cc1ccccc1CS(=O)(=O)Cc1ccc(C(=O)N2CCOCC2)o1 | 15% | >57
CC1CCCCC1NC(=O)c1cn(C)c2ccc(S(=O)(=O)N3CCCC3)cc2c1=O (stereo not given) | 3% | >57
CC(=O)N1CCc2cc(C(=O)CN3CCN(c4cccc(Cl)c4)CC3)ccc21 | -1% | >57
COc1ccc(S(=O)(=O)NCCN2CCOCC2)c2ccccc12 | -1% | >57
CCC(C)NC(=O)c1c(-c2cc(Cl)c(OC)c(Cl)c2)noc1C (stereo not given) | -22% | >57

Further records follow.
Molecule | Anthrax LT inh | Prx2 Sm inh
O=C(Nc1ccc2c(c1)CCC2)C1COc2ccccc2O1 (stereo not given) | -9% | >57
Cc1ccc(-c2[nH]nc3c2C(c2ccc(OC(=O)N4CCOCC4)cc2)C(C#N)=C(N)O3)cc1 (stereo not given) | 4% | .
CC(C(=O)O)c1cccc(C(=O)c2ccccc2)c1 (stereo not given) | 14% | >57
CC(NC(=O)c1ccccc1)(C(=O)O)C(=O)O | -4%[8 µM] | >57
CN(C)c1ccc(-c2nc(-n3ccnc3)c3ccccc3n2)cc1 | ? | >57
CN(C)C(=O)c1ccc(-c2ccc3ncnc(Nc4ccccc4)c3c2)cc1 | ? | >57
CCOc1ccc(C(C)=O)cc1Cn1nc(C(=O)O)c2ccccc2c1=O | 10% | .
CCOc1ccc(CCN2C(=O)C3C4C=CC(C4)C3C2=O)cc1OCC (stereo not given) | 6% | >57
CC(C)CCOc1ccc(C(=O)CCNC(C)C(=O)O)cc1 (stereo not given) | 4% | >57
CN(C(=O)COc1cc(=O)n(C)c2ccccc12)c1ccc(Br)cc1 | 4% | >57
COc1cc(SC)ccc1C(=O)Nc1ccccc1C#N | -5% | >57
O=C(O)[C@H]1[C@H]2CN[C@H](C(=O)O)[C@H]21 | -7% | >57

Later entries:
Molecule | Anthrax LT inh | Prx2 Sm inh
Cn1c(=O)c2c(nc(NCCCN3CCOCC3)n2Cc2ccc(Cl)cc2Cl)n(C)c1=O | -12% | >57
NC(=O)CSc1nc(O)cc(=O)n1-c1ccccc1 | -3% | >57
Cc1ccc2nc3ccc(N4CCCC4)nn3c(=O)c2c1 | -5% | >57
CC1CCc2[nH]nc(C(=O)O)c2C1 (stereo not given) | -21% | >57
CN(C)CCNS(=O)(=O)c1ccc(Cl)cc1 | 6% | >57
Cn1c(=O)c2[nH]c(CCCCc3nc4c([nH]3)c(=O)n(C)c(=S)n4C)nc2n(C)c1=S | ? | >57
Cc1ccc(C(=O)C2CN3CCC2CC3)cc1 (stereo not given) | -5% | >57
COc1ccc(S(=O)(=O)Nc2ccc(CC#N)cc2)cc1 | -2% | >57
S=P(C1CCCCC1)(C1CCCCC1)[C@H](c1cccnc1)N1CCCC1 | 0%[8 µM] | >57
Cn1c(=O)c2c(nc(SCC(=O)NCC3CCCO3)n2C)n(C)c1=O (stereo not given) | 5% | >57
Cc1c(C(=O)OCCOC(C)C)[nH]c2c1C(=O)CC(c1ccco1)C2 (stereo not given) | ? | >57
CCN(CC)CCCN(C(=O)c1cccs1)c1nc(-c2ccc(OC)cc2)cs1 | 10µM* | >57

Next part:
Molecule | Anthrax LT inh | Prx2 Sm inh
CCCC(=O)Nc1cc(=O)[nH]c2ncnn12 | 6% | >57
CC(C)[C@](N)(C(=O)O)c1ccccc1 | ? | >57
CCOc1ccc(NC(=O)CN2CCN(CC(=O)c3ccc(OC)c(OC)c3)CC2)cc1 | -11% | >57
O=c1c(-c2cccs2)nc2cnc(N3CCNCC3)nc2n1Cc1cccs1 | ? | >57
C[N+]1(C)C[C@@H](O)C[C@@H]1C(=O)[O-] | -24%[3.58 µM] | >57
CC(C(=O)Nc1cccnc1)N1C(=O)C2C3C=CC(C3)C2C1=O (stereo not given) | 11% | >57
Cc1noc(C(=O)N2CCN(c3ccc(F)cc3)CC2)c1Cl | -4% | >57
O=C(NCC(c1cccnc1)N1CCN(c2ccc(F)cc2)CC1)Oc1ccccc1 (stereo not given) | -23% | >57
Cc1ccc(CNC(=O)C2CCCN(S(C)(=O)=O)C2)cc1 (stereo not given) | ? | >57
CC1(C(=O)NC2CCCCCCC2)CCC(=O)N1Cc1cccnc1 (stereo not given) | 0% | >57
O=C(CSc1nnc(-c2ccccc2)o1)Nc1ccccc1F | -3% | >57
COc1ccc(CCNC(=O)C2CCN(S(=O)(=O)N3CCCCCC3)CC2)cc1OC | 5% | >57

Additional structures:
Molecule | Anthrax LT inh | Prx2 Sm inh
Cc1sc2nc(CN3CCOCC3)nc(NS(=O)(=O)c3ccc4c(c3)OCCO4)c2c1C | ? | >57
O=C(CCOc1ccccc1)Nc1ccc(S(=O)(=O)N2CCCC2)cc1 | -8% | >57
COC(=O)Cn1c(=N)n(CCN2CCCCC2)c2ccccc21 | ? | >57
COC(=O)c1ccc2c(=O)n(CCCCCC(=O)N3CCN(c4ccccc4)CC3)c(=O)[nH]c2c1 | -8% | >57
C=CCn1c(NCc2ccc(N(C)C)cc2)nc2ccccc21 | -3% | >57
COc1ccc(CCn2c(-c3ccco3)nc3nc4ccccc4nc32)cc1 | ? | >57
O=C(Nc1ccc2oc(-c3ccc(F)cc3)nc2c1)c1ccccc1F | -1% | >57
COC(=O)CSc1nc2ccccc2o1 | 7% | >57
O=C(NC1CCS(=O)(=O)C1)c1ccc(-c2ccc(Br)cc2)o1 (stereo not given) | -14% | >57
Cn1ccnc1SCC(=O)Nc1sccc1C#N | -3% | >57
CCCn1c(SCC(=O)Nc2nccs2)nnc1-c1cccnc1 | 1% | >57
COc1nc(NCCC2=CCCCC2)nc(OC)n1 | 2% | >57

Next part
Molecule | Anthrax LT inh | Prx2 Sm inh
NC1=NC(=Nc2ccccc2)c2ccccc21 | -14% | >57
O=C(CCCOc1ccc(Cl)cc1)N1CCCCCC1 | ? | >57
O=C(O)C1C2C=CC(C2)C1C(=O)NCc1ccc2c(c1)OCO2 (stereo not given) | 9% | >57
Fc1ccc(Cn2nnnc2C(c2cccs2)N2CCCCCC2)cc1 (stereo not given) | ? | >57
CN(C)CCCSc1nc2ccccc2[nH]1 | -15%[8 µM] | >57
COc1ccc(COC(=O)N/N=C2/C[C@@H](O)[C@@H](O)[C@@H]3[C@@H]4C(=O)N([C@@H](C)c5ccccc5)C(=O)[C@H]4CC[C@H]23)cc1 | -4%[8 µM] | .
COc1ccc2c(c1)N(CC[C@H]1CCCCN1C)c1ccccc1S2 | -11%[8 µM] | >57
Cc1cc(NC(=O)CN2CCCCCCC2)no1 | 2% | >57
O=C(CN(C(=O)CCC(=O)Nc1nccs1)c1cccc(F)c1)NCC1CCCO1 (stereo not given) | 5% | >57
CN(Cc1ccccc1)C1CC(=O)N(c2ccc(C(=O)O)cc2)C1=O (stereo not given) | 1% | >57
CC(C)C[C@H](NC(=O)[C@@H](NC(=O)N[C@@H](Cc1ccccc1)C(=O)O)[C@H]1CCN=C(N)N1)C(=O)N[C@H](C=O)Cc1ccccc1 | ? | >57
O=C(O)c1ccc2c3c(cccc13)C(=O)N(c1ccccc1O)C2=O | -1% | >57

Further structures.
Molecule | Anthrax LT inh | Prx2 Sm inh
CCOC(=O)C1CCN(C(=O)CN(Cc2ccccc2)S(C)(=O)=O)CC1 | . | >57
CCOC(=O)Cn1cnc2c(C#N)c3n(c2c1=O)CCCCC3 | 8% | .
COc1c(C)cc(Br)cc1C(=O)O | -1% | >57
CCOC(=O)C1CCN(S(=O)(=O)C(F)(F)c2nc3ccccc3s2)CC1 | -6% | >57
CC(=O)[O-].CC(=O)[O-].CC(=O)[O-].[Cr+3] | -7% | .
c1ccc(Cn2c(SCc3cn4cccnc4n3)nnc2-c2ccco2)cc1 | 0% | >57
